# A488 autofl = qHTS Assay for Spectroscopic Profiling in A488 Spectral Region | max dye equivalency, M | 59,000 tested, 0.1% active | compound autofluorescence, A488 spectral region, dye equivalency; hits give high values | AID 591, 2007; active = above 10 nM dye equivalent; inconclusive = 1 to 10 nM; inactive = 1 nM or less; about half of its hits are not listed in these tables;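 also: highest value over a series up to 38 µM; compound alone in buffer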
#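 Compound autofluorescence was read in 100 mM Tris pH 8.0 after 15 min at room temperature, ex 480 nm/em 540 nm. Intensities were converted to A488 dye-equivalent concentration using an on-plate six-point A488 standard curve.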
# AID923 = qHTS Assay for Allosteric/Competitive Inhibitors of Caspase-1: Spectroscopic Profiling in AFC Spectral Region; compound fluorescence, AFC spectral region (405/520 nm); almost no hit is shown here; Potency, µM (doses to about 57.5 µM), for the others: top-dose fluorescence increase, hits mostly activators; 75,000 tested, 1.1% active; AID 923, 2007; active = well fitted activation curve with a large enough effect; inconclusive = small, poorly fitted or top-dose-only effect;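 also: potency is read from the fitted curve at half-maximal effect; 0% is about no effect; scaled to a free AFC standard on each plate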
#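 Compound autofluorescence profiled at 405 nm ex/520 nm em during kinetic caspase 1 run (50 nM enzyme, 5 uM Ac-WEHD-AFC, HEPES pH 7.5, 10 mM DTT). Titration up to 57 uM; baseline from regression intercept, normalized to AFC standard curve.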
# TSHR ag = qHTS Assay for Agonists of the Thyroid Stimulating Hormone Receptor; HEK293-CNG-TSHR cells (CNG channel as cAMP sensor), membrane potential dye, cAMP; AID 926, 2007; Potency, µM (top dose mostly 57.1 µM), for the others: at the highest dose activation, most hits filed as activators; Thyrotropin receptor (Homo sapiens), P16473; 73,000 tested, 0.48% active; active = well fitted activation curve of enough size with the parental cells flat; inconclusive = any curve in the parental cells; inactive = parental cells flat and receptor cells flat or falling; also: potency is read from the fitted curve at half-maximal effect; % of control where 0% means no effect; weak receptor curves with flat parental cells got no call and are not listed
# Target sequence (P16473 whole entry, looked up): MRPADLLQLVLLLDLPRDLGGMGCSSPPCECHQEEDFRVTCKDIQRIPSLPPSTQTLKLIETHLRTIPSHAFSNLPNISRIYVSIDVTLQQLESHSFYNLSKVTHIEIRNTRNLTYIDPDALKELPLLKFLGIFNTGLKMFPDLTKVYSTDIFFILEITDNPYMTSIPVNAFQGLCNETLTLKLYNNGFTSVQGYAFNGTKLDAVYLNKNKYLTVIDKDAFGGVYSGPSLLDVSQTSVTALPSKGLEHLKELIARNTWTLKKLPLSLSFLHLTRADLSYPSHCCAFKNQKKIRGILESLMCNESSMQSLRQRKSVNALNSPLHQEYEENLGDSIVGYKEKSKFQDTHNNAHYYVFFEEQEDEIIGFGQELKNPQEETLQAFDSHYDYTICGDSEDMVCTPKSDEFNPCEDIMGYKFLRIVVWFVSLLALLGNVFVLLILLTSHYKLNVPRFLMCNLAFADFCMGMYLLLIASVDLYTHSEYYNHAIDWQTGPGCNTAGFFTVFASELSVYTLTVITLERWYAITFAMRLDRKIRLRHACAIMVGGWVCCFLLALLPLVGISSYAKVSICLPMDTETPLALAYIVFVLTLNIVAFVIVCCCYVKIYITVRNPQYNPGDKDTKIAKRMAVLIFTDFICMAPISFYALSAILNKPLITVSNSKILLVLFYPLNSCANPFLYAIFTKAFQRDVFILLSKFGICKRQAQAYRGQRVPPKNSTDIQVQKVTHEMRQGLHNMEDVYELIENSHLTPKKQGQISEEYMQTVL
#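 HEK 293 cells stably expressing TSHR and a cAMP-gated CNG channel; parental CNG-only cells as counterscreen. Cells preloaded 60 min with membrane potential dye plus 100 uM RO 20-1724, then compound 30 min; fluorescence read at 590 nm.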
# A647 fluor = qHTS Assay for Spectroscopic Profiling in A647 Spectral Region. Compound fluorescence, A647 channel (570/671 nm), Tris buffer. max dye-equivalent concentration, M. 59,000 tested, under 10 active; active means above 1 µM dye equivalent; inconclusive means 0.1 to 1 µM; inactive means 0.1 µM or less;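 also: values scaled relative to a standard on each plate; highest value over a series up to 38 µM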
#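 Each compound's intrinsic fluorescence at 570 nm excitation and 671 nm emission is measured across its concentration series in 100 mM Tris, pH 8.0, after 15 min at room temperature, and reported relative to an A647 curve.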
# Resorufin autofl = qHTS Assay for Spectroscopic Profiling in Resorufin Spectral Region; Compound fluorescence, resorufin region 547/598 nm, buffer; hits give high values; max dye-equivalent concentration, M; 59,000 tested, 0.04% active; AID 588, 2007; active = above 10 nM dye equivalent; inconclusive = 1 to 10 nM; inactive = 1 nM or less; a few of its hits are not listed in these tables; also: highest value over a series up to 38 µM
#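 Dye-equivalent concentration values derive from comparing each well's 547/598 nm fluorescence against resorufin standards included on every plate. Incubation was 15 min at room temperature in 100 mM Tris, pH 8.0.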
# * marks the source's active call; other numbers are inactive results; i = inactive; ? = inconclusive; / = no result given; & = joins results of further samples; [ ] = dose if it differs, or a comment. Some of the compounds tested; rates above refer to the full screens.
SMILES,A488 autofl,AID923,TSHR ag,A647 fluor,Resorufin autofl
CC(=O)OCc1cc(=O)n(C)c(=O)n1C,i,-2.1%,-6.0%,4.8e-09,i
Cc1ccc2[nH]c3c(c2c1)CCc1cn[nH]c1-3,i,3.3%,-34.5%[inhibitor],1e-09,i
COc1ccc2c(c1)C(=O)CC(c1ccccc1F)O2 (stereo not drawn),/,8.1%,?,/,/
CC1CCN(C(=O)CSc2nc(N)cc(N)n2)CC1,i,-0.8%,-12.8%,7.7e-09,i
Cc1cc(C)c(S(=O)(=O)Nc2ccccc2C(=O)O)cc1C,/,3.8%,7.1%,/,/
COc1ccc(-c2noc(C)c2-c2ccc3ccccc3n2)c(O)c1,i,-0.2%,29.6%,1e-09,i
CCCCCCC(=O)N(O)C1CC(=O)N(Cc2ccccc2)C1=O (stereo not drawn),i,0.0%,22.6%,2.32e-08,i
COc1ccc(-c2nc(SCC(=O)NCc3ccco3)c(-c3ccccc3)[nH]2)cc1OC,i,-1.3%,-6.5%,1e-09,i
Cc1ccc(CSC2=Nc3ccccc3C3=NC(CCC(=O)NCc4ccco4)C(=O)N23)cc1 (stereo not drawn),i,2.5%,?,2.04e-08,i
CCc1nc(SCC(=O)NCCc2ccc(OC)c(OC)c2)c2c(=O)n(C)c(=O)n(C)c2n1,/,-0.8%,0.5%[11.4 µM],/,/
O=C(O)C1C2C=CC(C2)C1C(=O)N1CCN(C/C=C/c2ccccc2)CC1 (stereo not drawn),i,0.9%,0.7%,1e-09,i
CCOC(=O)CSc1nc(N)nc(C)c1Br,/,1.9%,5.1%[11.4 µM],/,/
COc1ccc2c(c1)[nH]c1c(N3CCN(Cc4ccc5c(c4)OCO5)CC3)ncnc12,/,1.3%,23.1%,/,/
COC(=O)c1nnn(-c2nonc2N)c1CSc1ccc(Cl)cc1,i,-1.5%,?,3.7e-09,i
O=C(NCc1ccco1)c1nnc(Cc2ccc(F)cc2)o1,/,2.3%,0.2%,/,/
c1ccc(C(c2ccccc2)N2CCN(Cc3nnnn3C3CCCC3)CC2)cc1,i,0.5%,-5.1%,2e-09,i
c1csc(-c2nn[nH]n2)c1,i,-1.8%,1.1%,1.85e-08,i
CCc1cc2cc3c(cc2nc1SCC(=O)N1CCN(C(=O)c2ccco2)CC1)OCO3,i,8.0%,?,3.28e-08,i
CCC1CCCCN1Cc1nc2c(c(=O)n(C)c(=O)n2C)n1CCCc1ccccc1 (stereo not drawn),/,2.5%,-0.8%,/,/
COCCN1Cc2cccc(C(=O)Nc3ccccc3OC)c2C1=O,i,-0.8%,3.9%,2.39e-08,i
Cc1cc2cc3c(C)cc(=O)oc3c(C)c2o1,i,-0.4%,-1.0%[25.6 µM],3.88e-08,i
O=C(O)C1C2C=CC(C2)C1C(=O)N1CCOCC1 (stereo not drawn),i,-1.6%,11.1%,1.02e-08,i
Oc1ccc(Cn2cc[nH]c2=S)cc1,i,-1.5%,31.1%,1e-09,i
Cc1cc2oc3c(c(=O)c2cc1C)C(c1cccc(Br)c1)N(Cc1ccco1)C3=O (stereo not drawn),i,1.4%,9.5%,3e-09,i
Cc1cccc(-n2c(CNC(=O)COc3ccccc3)nnc2SCC(=O)Nc2nccs2)c1,i,0.2%,1.7%,1.34e-08,i
C#CCn1c(=O)c2c(ncn2C)n(C)c1=O,i,-1.6%,2.9%,1.59e-08,i
C=CCn1c(COc2ccccc2C)nnc1SCC(=O)O,i,0.3%,6.3%,7.3e-09,i
Cc1cc(N2CCCC2)n2nc(C)c(-c3ccccc3)c2n1,i,-1.1%,-0.4%,1.02e-08,i
O=c1c(=O)n(O)c2ccccc2n1O,i,3.3%,2.4%,9.1e-09,i
COc1ccc(C(c2nnnn2CCc2ccccc2)N2CCN(C)CC2)cc1OC (stereo not drawn),i,1.0%,5.4%,1e-09,i
COC(=O)c1ccc(OC)c(CSc2nnc(COc3ccc(Cl)cc3)o2)c1,i,-0.1%,?,1.36e-08,i
CN1CCN(C2CCCCCC2)CC1,/,2.3%,6.6%,/,/
O=c1[nH]nc(Cc2ccccn2)c2ccccc12,i,-1.9%,?,1e-09,i
N[C@@H](COP(=O)(O)O)C(=O)O,/,-1.8%,6.4%,/,/
CCCc1cc(=O)n2[nH]c(-c3cc(OC)c(OC)c(OC)c3)nc2n1,i,0.5%,25.1µM*,1e-09,i
O=S(=O)(NC1CC1)c1ccc(S(=O)(=O)N2CCN3CCCC3C2)cc1 (stereo not drawn),i,0.9%,15.8%,1.94e-08,i
O=C(O)CC(C(=O)NC1CCCCC1)C1CCCO1 (stereo not drawn),/,-2.5%,-2.7%,/,/
COc1cc2[nH]c(=O)n(CCCC(=O)NCCc3ccccc3)c(=O)c2cc1OC,i,-0.3%,1.7%,1.95e-08,i
CN1C(=O)C(O)(CC(=O)c2cccnc2)c2ccccc21 (stereo not drawn),/,-2.6%,2.6%[11.4 µM],/,/
CCCCn1c(C(C)NC(=O)COC)nc2ccccc21 (stereo not drawn),i,0.1%,1.3%[11.4 µM],1.3e-09,i

# Just A488 autofl, A647 fluor and AID923, for 2 of the compounds above:
Molecule | A488 autofl | A647 fluor | AID923
COC(=O)c1ccc(OC)c(CSc2nnc(COc3ccc(Cl)cc3)o2)c1 | i | 1.36e-08 | -0.1%
CN1CCN(C2CCCCCC2)CC1 | / | / | 2.3%

# Next structures:
SMILES,A488 autofl,AID923,TSHR ag,A647 fluor,Resorufin autofl
CCCCC#CC1C=CC(Oc2ccc(OC)cc2)C(CO)O1 (stereo not drawn),/,-1.7%[11.5 µM],1.7%[11.4 µM],/,/
COC(=O)c1c(NC(=O)COC(=O)Cn2cnc3ccccc32)sc(C)c1C,i,-0.6%,/,3.1e-09,i
O=C(c1csnn1)N1CCC2(CCN(Cc3cc(C(F)(F)F)cc(C(F)(F)F)c3)CC2)CC1,i,4.3%,4.7%,1e-09,i
Cc1ccc(C(=O)Cn2nnc(-c3ccccc3-n3cnnn3)n2)cc1,i,-1.6%,7.6%,1e-09,i
COc1cc2c(cc1OC)CN(Cc1ccc(OC)c(C)c1OC)CC2,/,1.0%,?,/,/
COc1ccccc1N1CCN(C(=O)c2ccc(NC(C)=O)cc2)CC1,i,1.6%,0.0%,1.56e-08,i
COc1ccc(-n2c(N3CCN(C)CC3)nc3sc4c(c3c2=O)CCCCC4)cc1,i,-1.1%,11.4%,3.1e-09,i
O=C(COc1ccccc1)Nc1ccccc1C(=O)NCc1ccco1,i,0.1%,17.4%,3e-08,i
O=C(c1cc2nc(C3CC3)cc(C(F)(F)F)n2n1)N1CCCC1,i,-3.8%,-5.8%,3.6e-09,i
COc1cccc(CNc2ccc(F)c(Cl)c2)c1O,i,-2.0%,1.8%,2.26e-08,i
CC(=O)c1cc2c(cc1NC(=O)CN1CCN(C(=O)c3ccco3)CC1)OCO2,/,-0.7%,3.3%,/,/
OC[C@H]1NC[C@@H](O)[C@@H](O)[C@H]1O,/,-2.4%,4.1%,/,/
N#CCSc1nnc(Cc2cccs2)n1C1CCCCC1,i,-0.1%,6.4%,1.04e-08,i
CCOC(=O)N1CCC(NC(=O)Cn2cccc2C(=O)c2ccccc2)CC1,i,0.7%,/,4.21e-08,i
CC1(C)Cc2ccccc2-c2nnc(SCC(=O)N3CCc4ccccc43)n21,i,0.0%,8.7%,3.2e-09,i
C/C(CCN1CCCCc2nc(C)c(C)cc21)=N\O[C@@H](C)c1cn([C@H](CO)Cc2ccccc2)nn1,/,-1.3%&0.7%[11.5 µM],5.2%&3.9%[11.4 µM],/,/
CC(C)Cn1c2c(c(O)c(C(=O)Nc3nccs3)c1=O)CCCC2,i,-0.9%,?,1.3e-09,i
O=C(O)CCN1C(=O)C2C3C=CC(C3)C2C1=O (stereo not drawn),i,-0.6%,-5.2%,1.7e-09,i
CC(C)(C)CC(C)(C)c1cc(O)c(O)c(CN2CCCCC2)c1,i,-2.9%[11.5 µM],4.6%[11.4 µM],5.08e-08,i
Cc1c(NC(=O)c2ccc3c(c2)OCO3)cccc1-c1nc2ccccc2o1,i,1.2%,?,1e-09,i

# Ordered by number of heavy atoms (ascending): some entries from above
SMILES,A488 autofl,AID923,TSHR ag,A647 fluor,Resorufin autofl
OC[C@H]1NC[C@@H](O)[C@@H](O)[C@H]1O,/,-2.4%,4.1%,/,/
N#CCSc1nnc(Cc2cccs2)n1C1CCCCC1,i,-0.1%,6.4%,1.04e-08,i
CC(C)(C)CC(C)(C)c1cc(O)c(O)c(CN2CCCCC2)c1,i,-2.9%[11.5 µM],4.6%[11.4 µM],5.08e-08,i
CC(C)Cn1c2c(c(O)c(C(=O)Nc3nccs3)c1=O)CCCC2,i,-0.9%,?,1.3e-09,i
CC(=O)c1cc2c(cc1NC(=O)CN1CCN(C(=O)c3ccco3)CC1)OCO2,/,-0.7%,3.3%,/,/
C/C(CCN1CCCCc2nc(C)c(C)cc21)=N\O[C@@H](C)c1cn([C@H](CO)Cc2ccccc2)nn1,/,-1.3%&0.7%[11.5 µM],5.2%&3.9%[11.4 µM],/,/

# The results go on:
SMILES,A488 autofl,AID923,TSHR ag,A647 fluor,Resorufin autofl
CNS(=O)(=O)c1cccc2nsnc12,i,/,/,1.5e-09,i
C=CCSc1nc2c(c(=O)[nH]c(=O)n2C)n1CC,i,1.1%,2.8%,2.12e-08,i
CCCNC(=O)CS(=O)Cc1nc(-c2cccc(OC)c2)oc1C (stereo not drawn),/,-0.9%,3.4%,/,/
COCCNc1ccnc(-c2ccccc2C(F)(F)F)n1,i,0.4%,-4.2%,1e-09,i
Cc1nc(NS(=O)(=O)c2cccs2)c2c3c(sc2n1)CCC3,i,-2.4%,-5.0%,7.6e-09,i
CC1CCc2cc(F)ccc2N1C(=O)c1ccc2c(c1)OCO2 (stereo not drawn),i,-0.7%,25.1µM*,1e-09,i
Cc1ccc(CSc2nnnn2C)cc1,i,0.4%,0.0%,4.7e-09,i
Nc1nnc(SCc2ccccc2Cl)s1,i,-0.5%,11.8%,1e-09,i
CCCCOC(=O)C(C)c1c(C)[nH]c(=S)[nH]c1=O (stereo not drawn),i,/,/,3.5e-09,i
COc1ccc(OC)c(NC(=O)C2CC(C)=C(C)CC2C(=O)O)c1 (stereo not drawn),/,-3.5%,-5.5%,/,/
COc1ccc(NC(=O)NCCN2CCc3ccccc3C2)cc1,i,3.7%,9.8%,1.3e-09,i
CCC(C)(C)NC(=O)C(c1ccco1)N(C(=O)Cn1nnc2ccccc21)c1ccc2c(c1)OCO2 (stereo not drawn),i,2.0%,19.8%,1.33e-08,i
O=C(NC1CC2CCCC(C1)N2C(=O)NCc1ccccc1)C1CC1 (stereo not drawn),i,0.4%,-2.7%,5.4e-09,i
Cc1onc(-c2ccccc2Cl)c1C(=O)Nc1cnn(Cc2ccccc2)c1,/,0.1%,-4.0%,/,/
Cc1ccc(S(=O)(=O)N2CCN(CCO)CC2)cc1-c1nnc2c3ccccc3c(C)nn12,i,-0.9%,15.8µM*,4.7e-09,i
NC(=O)CN1CCOCCN(CC(N)=O)CCOCC1,/,0.2%,5.1%,/,/
NS(=O)(=O)c1ccc(NC(=O)CSc2ccccn2)cc1,i,2.9%,3.8%,2.2e-09,i
Cc1[nH]c2ccc(-c3n[nH]c(=S)n3C)cc2c1C,/,-0.8%,?,/,/
CCOC(=O)c1cnc(SCC(=O)c2ccc3c(c2)OCCO3)nc1N,i,2.1%,?,3.65e-08,i
COc1ccc2c(CC(=O)OCC(=O)c3ccc(F)cc3)coc2c1,i,0.2%,?,3.1e-09,i
Cc1ccc(C(C)n2cc(C(=O)NCCN3CCN(C)CC3)nn2)cc1 (stereo not drawn),i,1.1%,2.8%,9.4e-09,i
Cc1cc2oc3c(c(=O)c2cc1C)C(c1ccc(C(C)C)cc1)N(CCCN1CCOCC1)C3=O (stereo not drawn),/,3.0%,15.7%,/,/

# Screening results as filed in PubChem BioAssay.
